Compound activity from PubChem.
AID504770 = E. coli YBA685 growth inhibition, screen for V. cholerae RctB inhibitors | z-score (concentration not given with the values) | AID 504770 | hit rate 0.27% among 130,000 | E. coli YBA685 rctB-dependent plasmid, OD600 growth, 3 h; hits give low values;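 active = z-score under -2 on both plates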;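 also: wells of about 30 µL received 100 nL stock; score is relative to mean and SD of the test wells; the first replicate is given; strong numbers were not always called active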
Ba CapD inh = blocks the Bacillus anthracis CapD enzyme. purified CapD enzyme, fluorescence intensity read-out; hits give low values; some hits fall short of the stated cut. z-score (test concentration not listed). hit rate 0.23% among 140,000;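 active = z-score under -4 in either of two replicates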;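 also: stock transfer was 100 nL into about 40 µL; score is relative to mean and spread of the plate; one replicate is shown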
Numbers without * were called inactive; . = not tested or not shown; & = joins results of further samples.

SMILES	AID504770	Ba CapD inh
CC(=O)Nc1ccc(-n2c(/C=C/c3cccc([N+](=O)[O-])c3)nc3ccccc3c2=O)cc1	.	-0.115
Cc1cc(C)n(-c2ccc(C(=O)OCC(=O)NCC3CCCO3)cc2)n1 (stereo not drawn)	-0.55	.
O=C1N=c2ccccc2=C1c1c(O)n(-c2cccc(F)c2)[nH]c1=O	-0.5	0.63
COc1cc2c(cc1NC(=O)CSc1nnc(Cc3cccs3)n1Cc1ccco1)oc1ccccc12	1.3	-0.59
O=C(O)CSc1c2c(nc3cc(C(=O)NCc4ccc(F)cc4)ccc13)CCCC2	0.35	0.25
Cc1ccc2c(CSc3cccc[n+]3[O-])cc(=O)oc2c1	-0.3	.
Cn1c(=O)c2c(nc(SCCNS(=O)(=O)c3ccccc3)n2C)n(C)c1=O	-0.5	-0.155
N#CC1=C(SCC(=O)OCc2ccccc2)NC(=O)CC1c1cccc([N+](=O)[O-])c1 (stereo not drawn)	.	-0.27
N#CCC(=O)Nc1cccc(C(F)(F)F)c1	.	0.825
CN(C)S(=O)(=O)c1ccc(C(=O)Nc2nnc(C34CC5CC(CC(C5)C3)C4)s2)cc1	.	-0.335
COc1ccc(-c2cc(C(=O)OCC(=O)NCc3ccco3)c3c(C)nn(-c4ccccc4)c3n2)cc1	-0.5	.
COCCCNC(=O)c1sc2ncnc(N3CCN(c4ccc(OC)cc4)CC3)c2c1C	.	-0.36
Cc1nn(C)c(=O)c(N)c1-c1cc(-c2ccsc2)n[nH]1	.	0.565
COc1ccc(N(C)C(=O)c2ccc3snnc3c2)cc1	-0.75	-0.445
CN(NS(=O)(=O)c1ccccc1C(F)(F)F)c1cnc2ccccc2n1	0.7	0.405
O=C(CSc1nc2c(sc(=S)n2CCc2ccccc2)c(=O)n1Cc1ccco1)N1CCCC1	.	1.07
Cc1ccnc(NC(c2ccc(Cl)cc2)n2nc(C)cc2C)c1 (stereo not drawn)	-0.1	0.66
COc1cc(/C=C2N=C(/C=C/c3cccc(Cl)c3Cl)OC/2=O)ccc1OC(C)=O	.	-0.965
Cc1cccc(-n2c(O)c(C3=c4ccccc4=NC3=O)sc2=S)c1	-0.6	-0.435
CCCC1Cc2[nH]c(=O)c(C#N)cc2CO1 (stereo not drawn)	1.4	68.2
CC(C)CNC(=O)c1c(N)n(/N=C/c2ccncc2)c2nc3ccccc3nc12	0.7	.
O=C(O)CNC(=O)c1cccc(C(F)(F)F)c1	1.05	-0.42
Cc1nn(C(=O)c2ccoc2C)c(N)c1-c1ccccc1	1.65	-0.365
N=C1SC(c2ccccc2)C(=O)N1c1nccs1 (stereo not drawn)	-0.4	.
CC(C)C1Cc2c(sc3nc(SCC(=O)O)n(-c4ccccc4)c(=O)c23)CO1 (stereo not drawn)	0.4	0.59
Cc1cc(C(=O)N/N=C2\C(=O)c3cccc4cccc2c34)c(C)o1	0	.
COC(=O)c1ccc(COc2ccc(-c3nn[nH]n3)cc2)cc1	-0.95	0.185
CC1=C(C(N)=O)C(c2ccc(C)o2)C(C(N)=O)=C(C)N1	-0.5	.
O=C(CCN1CCCC1)Nc1ccc2c(c1)OCO2	0.2	-0.005
Cc1ccc(C(=O)Oc2ccc3oc(=O)sc3c2)cc1	1.75	-0.46
O=[N+]([O-])c1ccc(C2=Nc3ccccc3C(c3ccccc3)(c3ccccc3)O2)cc1	.	0.205
Cc1ccc(C2=NNC(C(O)C(O)C(O)C(C)O)S2)cc1 (stereo not drawn)	-0.4	6.38
CS(=O)(=O)NCCOc1ccccc1	-1.1	0.065
O=C1NCC(NC(=O)C(F)(F)F)c2cc3c(cc21)OCO3 (stereo not drawn)	0.05	-0.41
COc1cccc(NC(=O)N2Cc3ccccc3Oc3ncccc32)c1	-0.6	1.53
O=c1c2c3c(sc2[nH]c(=S)n1-c1ccccc1)CCC3	.	-1.12

The last two compounds of the part before lead into the next.
SMILES	AID504770	Ba CapD inh
COc1cccc(NC(=O)N2Cc3ccccc3Oc3ncccc32)c1	-0.6	1.53
O=c1c2c3c(sc2[nH]c(=S)n1-c1ccccc1)CCC3	.	-1.12
CCN1/C(=N\N)c2cccc3cccc1c23	-0.15	.
O=C(c1ccc(N2CCCS2(=O)=O)cc1)N1CCCC1	-0.8	0.07
COc1ccc(-c2cc(C(F)(F)F)n3nc(C(=O)NCCN4CCOCC4)c(Br)c3n2)cc1	1.45	.
CN1/C(=C/C=C(C#N)C#N)C=Cc2ccccc21	-0.8	.
CC(=O)NC(Cc1cccc(C)c1)C(=O)NC1CCN(c2nc(C)cc(C)c2C#N)CC1 (stereo not drawn)	-0.45	.
O=C(CCOc1ccccc1)OCc1ccccc1F	-0.25	.
CCOC(=O)c1cccc(NC2=NC3(CCCCC3)N=C(N)N2)c1	0.1	-0.885
CC1=C(C#N)C(c2ccc(-c3ccc(OC(F)(F)F)cc3)o2)C2=C(CCCC2=O)N1 (stereo not drawn)	0	1.82
COc1ccc(NC(=O)C2CSC(C)(C)N2C=O)cc1 (stereo not drawn)	1	0.195
Cc1csc(NC(=O)/C=C\C(=O)O)n1	0.15	.
COc1ccc(/C=N/c2nc3ccccc3n2CCN2CCCCC2)cc1OC	-0.2	-0.38
Cc1ccc(C(=O)CC(SCc2ccco2)c2cccs2)cc1 (stereo not drawn)	-0.35	.
C=CCNC(=O)CSc1nc(O)cc(=O)[nH]1	0.75	0.47
CC(=O)Nc1ccc(Oc2nnc(-c3ccc(Cl)cc3)c3ccccc23)cc1	.	0.19
CC(C)Nc1nc(NC(C)C)nc(OCCOC(=O)c2ccccc2)n1	.	0.26
O=C(NCc1ccccc1)c1cc2nc(-c3ccc4c(c3)OCO4)cc(C(F)(F)F)n2n1	.	0.09
N#Cc1cc(C(=O)Nc2ccccc2)c(N)[nH]c1=S	-0.5	.
O=C(/C=C/c1nc2ccccc2o1)OCc1cccc(Cl)c1	-0.4	.
O=C(CSc1nnc(CNc2ccccc2)o1)N1CCc2ccccc21	1.6	.
CN(c1ccc(Br)cc1)S(=O)(=O)c1ccc2c(c1)CCN2C(=O)CCC(=O)O	0.5	0.45
O=C(O)CCC(=O)Nc1ccccc1	2.65	-0.56&0.035
CCCN1CCC(N2CCCC(C(=O)N3CCCCCC3)C2)CC1 (stereo not drawn)	-0.55	-0.235
O=C(Nc1ccc(Cl)cc1)c1cccnc1	.	-0.17
CCC(=O)NC(=S)Nc1ccc2oc(-c3ccccc3Cl)nc2c1	0.3	1.03

Compound profiles, from the list above. Values in the order: AID504770 | Ba CapD inh
Results for `CCC(=O)NC(=S)Nc1ccc2oc(-c3ccccc3Cl)nc2c1` = 0.3 | 1.03
Results for `O=C(/C=C/c1nc2ccccc2o1)OCc1cccc(Cl)c1` = -0.4 | .
Results for `C=CCNC(=O)CSc1nc(O)cc(=O)[nH]1` = 0.75 | 0.47
Results for `CCCN1CCC(N2CCCC(C(=O)N3CCCCCC3)C2)CC1` (stereo not drawn) = -0.55 | -0.235
Results for `CN(c1ccc(Br)cc1)S(=O)(=O)c1ccc2c(c1)CCN2C(=O)CCC(=O)O` = 0.5 | 0.45

Later entries.
SMILES	AID504770	Ba CapD inh
CCOC(=O)C(C)Sc1ncnc2nc[nH]c12 (stereo not drawn)	-0.35	0.155
Cc1ccc2c(CSc3nnc(C4CC4)n3C3CC3)cc(=O)oc2c1	-0.1	.
CCOc1ccc(CCNc2ncnc3c2nc2n3CCCCC2)cc1OCC	-0.9	-0.12
O=C(CCCn1c(SCC(=O)c2ccccc2)nc2ccccc2c1=O)NCc1ccccc1	-0.1	-0.58
O=C(/C=C/c1cccs1)N1CCN(c2ccccc2)CC1	-1.25	.
O=C(Nc1ccc(Cl)cc1)OCCn1nnnc1C(c1ccccc1)N1CCOCC1 (stereo not drawn)	-0.8	-0.185
C=CCn1c(C)cc(C(=O)COC(=O)c2c(C)nn(Cc3ccccc3)c2C)c1C	0.15	.
COc1ccc(C(=O)COc2ccc3c(C)c(Cl)c(=O)oc3c2)cc1	0.55	20.6
CC(C)(C)c1cc(Cl)c(OS(=O)(=O)c2cc(Cl)cc(Cl)c2)c(Br)c1	.	0.495
CCOc1ccc(-c2nnc(-c3ccc(Br)cc3)o2)cc1OCC	0.7	.
COC(=O)C(NC(C)=O)(Nc1ccc(C)cn1)C(F)(F)F (stereo not drawn)	.	-0.06
CCOC(=O)c1c(C)oc2nc(C)nc(NC3CCN(C(=O)OCC)CC3)c12	-0.1	0.21

Rewritten with bars between the fields: part of the list above
Molecule | AID504770 | Ba CapD inh
Cc1nn(C(=O)c2ccoc2C)c(N)c1-c1ccccc1 | 1.65 | -0.365
N=C1SC(c2ccccc2)C(=O)N1c1nccs1 (stereo not drawn) | -0.4 | .
CC(C)C1Cc2c(sc3nc(SCC(=O)O)n(-c4ccccc4)c(=O)c23)CO1 (stereo not drawn) | 0.4 | 0.59
Cc1cc(C(=O)N/N=C2\C(=O)c3cccc4cccc2c34)c(C)o1 | 0 | .
COC(=O)c1ccc(COc2ccc(-c3nn[nH]n3)cc2)cc1 | -0.95 | 0.185
CC1=C(C(N)=O)C(c2ccc(C)o2)C(C(N)=O)=C(C)N1 | -0.5 | .

Following part:
SMILES	AID504770	Ba CapD inh
COc1ccc(OC(C)C(=O)O)cc1 (stereo not drawn)	-0.75	-0.34
CN1C(=O)/C(=C(/C#N)C(=O)NCCc2ccccc2)c2ccccc21	-0.05	.
O=C(O)C1(S(=O)(=O)c2ccccc2)CC1	0.9	0.64
Cc1cc2n(n1)CCCN2Cc1ccc(C(=O)N2CCc3ccccc32)cc1	-0.15	-1.48
Cc1cc(C(=O)OCCN2CCN(C3=NS(=O)(=O)c4ccccc43)CC2)c2ccccc2n1	-0.1	13.7
COC(=O)c1sc(SC)c(S(=O)(=O)C(C)C)c1SC	.	-0.705
COC(=O)c1ccc(OCC(=O)c2ccccc2OC)cc1	-0.45	.
COC(=O)c1ccc(N=NN2CCCCC2)cc1	1.7	.
CC1CN=C(NS(=O)(=O)c2ccccc2)N1 (stereo not drawn)	0.1	-0.44
N#CC(C(=O)NCc1ccccc1)c1ccccc1 (stereo not drawn)	-0.7	0.34
CC(Nc1ncnc2sc3c(c12)CCC3)c1ccc(S(N)(=O)=O)cc1 (stereo not drawn)	-0.35	.
CCOc1ccc(C2=C(/C=c3/sc4nc5ccccc5n4c3=O)C(c3ccc(F)cc3)c3ccccc3O2)cc1 (stereo not drawn)	.	-0.12
Nc1cc2c(cc1Cl)C(=O)NC2=O	.	-0.445
COc1ccc(C2CC(=O)Nc3c2cc(Br)c2ccccc32)c(OC)c1OC (stereo not drawn)	.	4.05
O=c1[nH]c2ccc(Cl)cc2c(-c2ccccc2)c1N1CCN(Cc2ccc3c(c2)OCO3)CC1	0.3	0.545
COc1ccc(S(=O)(=O)N2CCc3c(F)c(F)c(F)c(F)c32)cc1	.	-0.555
CC(=O)c1ccc(Nc2nc(N3CCOCC3)nc(N3CCOCC3)n2)cc1	.	-0.34
CCC(C)N=CC1=C(O)CC(C)(C)CC1=O (stereo not drawn)	-0.25	0.44
COc1ccc(-c2nc3ccccc3n2OCc2cccc(C(F)(F)F)c2)cc1	.	0.185
Nc1ccc(N=Nc2ccccc2)c(N)n1	0.4	-0.02&-0.325
CSC(=Nc1ccc(Cl)cc1)NC#N	-1.05	-0.395
COc1ccc(-c2noc(C3CCCN(C(=O)Nc4ccccc4)C3)n2)cc1 (stereo not drawn)	0.05	.
N/C(=N\OCc1noc(-c2ccsc2)n1)c1ccc(C(F)(F)F)cc1	0.85	-0.25
CCS(=O)(=O)c1nc(S(=O)(=O)c2ccc(Cl)cc2)c(N2CCN(CCO)CC2)s1	-0.05	-0.26
COc1ccc(/C=C/C(=O)Nc2ccc(S(=O)(=O)N3CCCC3)cc2)cc1	-1.25	4.32
Cc1onc(-c2c(Cl)cccc2Cl)c1NC(=O)OCCOc1cc(C(F)(F)F)ccn1	-1.3	-0.57
Cc1ccc(OCCOc2ccc(Br)cc2C=C2C(=O)NC(=S)NC2=O)cc1	.	-0.8
COc1ccc(NC(=O)CC2(CC(=O)O)CCCC2)cc1	-0.65	2.35
COc1cc(NS(=O)(=O)c2ccc(N)cc2)ncn1	-0.2	-0.085&0.47
Cc1nc2c(ccc3nc(NC(=O)c4cccc(Oc5ccccc5)c4)sc32)s1	2.15	-0.69
CCc1nc2ccccc2c2c1C(=O)N(CC(O)c1ccccc1)C2=O (stereo not drawn)	.	-0.195
O=C(CSc1nc2ccccc2c(=O)n1Cc1ccccc1)NC1CCS(=O)(=O)C1 (stereo not drawn)	0.2	.
Cc1ccc(NC(=O)c2cccc(S(C)(=O)=O)c2)cc1	0.3	.
O=C1CC(c2ccco2)CC2=C1C(c1ccccc1)n1nc(C(F)(F)F)nc1N2 (stereo not drawn)	0.85	2.77
C=C1C(C(=O)Nc2ccc(F)cc2)C1C(=O)Nc1ccc(F)cc1 (stereo not drawn)	2.6	.
CCOC(=O)Cc1csc(N)n1	0.7	-0.235
COc1ccccc1-c1nc(SCC(=O)c2ccc(O)c(O)c2)n[nH]1	-2.05	-0.785
NC(=O)CSc1nnc(-c2ccc(Cl)cc2Cl)n1C1CCCCC1	0.35	0.625
CC1CCN(C(=O)CN2C(=O)C(C)(C)Oc3ccc(C(=O)NC(C)C)cc32)CC1	-0.5	.
Cc1ccc(CC2S/C(=N/c3ccccn3)NC2=O)cc1 (stereo not drawn)	.	-0.26
CCn1cc(SCC(=O)N2CCc3ccccc32)c2ccccc21	0.5	-0.655
Cc1noc(C)c1CCNC(=O)c1ccc(NC(=O)C2=CSCCO2)cc1	0	-0.36
Cc1cccc(N2CCN(C(=O)CC3(CC4=NS(=O)(=O)c5ccccc5N4)CCCC3)CC2)c1C	-0.1	0.765
CC1=C(C(=O)OCCOC(C)C)C(c2coc3ccccc3c2=O)C2=C(CCCC2=O)N1 (stereo not drawn)	.	-0.39
Nc1cccc(Cl)c1NCCNc1ncc(C(F)(F)F)cc1Cl	.	-0.265
